Assay outcomes (PubChem)
Yeast UUG start: modulators of yeast start codon fidelity, primary screen, whole organism, S. cerevisiae, single point, plate reader; S. cerevisiae UUG-firefly luciferase reporter, luminescence/redox ratio; activity score, % at 18.7 µM; 350,000 compounds, 0.13% hits;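 active = replicate mean at a twofold rise or more, about +100% in these data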;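 note: firefly luciferase made from a UUG start codon reports start codon fidelity; reporter light over untreated wells divided by growth signal over untreated wells; some hits fall short of that in this replicate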
Env fusion inh: inhibitors of HIV-1 Env-driven cell-cell fusion, primary screen, HeLa-JRFL effector, CEM21 target cells, luciferase | 360,000 compounds, 1.1% hits | AID 651610, 2012 | inhibition, % at 12.3 µM;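 active = mean replicate inhibition score of at least 50 and every replicate individually at or above 50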;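 note: 0% = plate neutral controls and 100% = maraviroc near 300 nM; one replicate is shown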
* = called active by the depositor; [ ] = another dose, or the depositor's remark.

SMILES	Yeast UUG start	Env fusion inh
C[C@H](CO)N1C[C@H](C)[C@@H](CN(C)C(=O)NC2CCCC2)Oc2ncc(C3=CCCCC3)cc2C1=O	3	13[16.7 µM]
CCNC(=O)C[C@@H]1CC[C@H]2[C@H](COc3ccc(NC(=O)Nc4c(C)noc4C)cc3C(=O)N2C)O1	6	-14[16.7 µM]
Cc1noc(C)c1NC(=O)N(C)C[C@H]1OCCCC[C@H](C)Oc2ccc(NS(=O)(=O)c3cn(C)cn3)cc2C(=O)N([C@@H](C)CO)C[C@@H]1C	-14	-10[16.7 µM]
CC(C)NC(=O)N(C)C[C@@H]1Oc2ncc(-c3cccc(C#N)c3)cc2C(=O)N([C@H](C)CO)C[C@H]1C	-4	16[16.7 µM]
C[C@H](CO)N1C[C@H](C)[C@@H](CN(C)Cc2ccccc2)Oc2c(NS(=O)(=O)c3cccs3)cccc2C1=O	-6	-10[16.7 µM]
C[C@@H]1CN([C@@H](C)CO)C(=O)c2cc(-c3ccc(F)cc3)cnc2O[C@H]1CN(C)C(=O)NC1CCCC1	11	-5[16.7 µM]
C[C@@H]1CCCCO[C@H](CN(C)C(=O)Nc2ccccc2)[C@@H](C)CN([C@@H](C)CO)C(=O)c2cc(NS(=O)(=O)c3ccccc3)ccc2O1	-2	-82[16.7 µM]
C[C@H](CO)N1C[C@H](C)[C@H](CN(C)CC2CCCCC2)Oc2c(NC(=O)Nc3ccc4c(c3)OCO4)cccc2C1=O	-7	-105[16.7 µM]
CCC(=O)N[C@@H]1C=C[C@H](CC(=O)NCc2ccc(OC)cc2)O[C@@H]1CO	-6	1[16.7 µM]
CNC[C@H]1Oc2ccc(NC(=O)Nc3ccc(C(F)(F)F)cc3)cc2CC(=O)N([C@@H](C)CO)C[C@H]1C	28	2[16.7 µM]
C[C@@H]1CN([C@@H](C)CO)C(=O)c2cccc(NS(=O)(=O)c3ccc(F)cc3)c2O[C@@H]1CN(C)C(=O)Nc1ccc(F)cc1	9	-34[16.7 µM]
C[C@H]1CN([C@@H](C)CO)C(=O)c2cc(C#CCc3ccccc3)cnc2O[C@H]1CN(C)C(=O)C1CCOCC1	-4	-3[16.7 µM]
C[C@H]1CN([C@@H](C)CO)C(=O)c2cc(-c3cccc(C#N)c3)cnc2O[C@@H]1CN(C)Cc1ccccc1	9	-3[16.7 µM]
Cc1ccc(S(=O)(=O)Nc2cccc3c2O[C@@H](CN(C)Cc2ccc4c(c2)OCO4)[C@H](C)CN([C@H](C)CO)C3=O)cc1	0	2[16.7 µM]
COc1ccc(S(=O)(=O)N(C)C[C@@H]2Oc3ccc(NC(=O)Nc4ccc5c(c4)OCO5)cc3CC(=O)N([C@@H](C)CO)C[C@@H]2C)cc1	2	1[16.7 µM]
O=C(Cc1ccccn1)N[C@@H]1CC[C@@H](CC(=O)N2CCCCC2)O[C@@H]1CO	-6	-9[16.7 µM]
COCC(=O)N(C)C[C@@H]1Oc2ncc(C#Cc3ccccc3OC)cc2C(=O)N([C@@H](C)CO)C[C@H]1C	51	0[16.7 µM]
COC(=O)C[C@@H]1C[C@@H]2c3cc(NC(=O)c4cccnc4)ccc3O[C@@H]2[C@H](CO)O1	-11	-13[16.7 µM]
COc1ccc(NC(=O)Nc2cccc3c2O[C@H](CN(C)S(=O)(=O)c2ccc(OC)cc2)[C@H](C)CN([C@@H](C)CO)C3=O)cc1	6	-4[16.7 µM]
COc1ccc(-c2cnc3c(c2)C(=O)N([C@@H](C)CO)C[C@@H](C)[C@H](CN(C)C(=O)CN(C)C)O3)cc1	0	1[16.7 µM]
COc1ccccc1C#Cc1ccc2c(c1)O[C@H](CN(C)Cc1cncnc1)[C@@H](C)CN([C@@H](C)CO)S2(=O)=O	94	1[16.7 µM]
C[C@@H]1CN([C@@H](C)CO)C(=O)c2cc(NC(=O)Nc3ccccc3)ccc2O[C@@H](C)CCCCO[C@H]1CN(C)Cc1ccc2c(c1)OCO2	3	8[16.7 µM]
C[C@@H]1CN([C@@H](C)CO)C(=O)Cc2cc(NC(=O)Nc3ccc(F)cc3)ccc2O[C@H]1CN(C)C(=O)Nc1cccc2ccccc12	2	6[16.7 µM]
COc1ccccc1-c1cnc2c(c1)C(=O)N([C@@H](C)CO)C[C@H](C)[C@@H](CN(C)C)O2	12	-13[16.7 µM]
O=C(C[C@H]1CC[C@@H]2[C@H](COC[C@H](O)CN2C(=O)Nc2ccc(F)cc2)O1)NCCc1ccccc1	-6	3[16.7 µM]

As a short view, some entries already given:
SMILES	Yeast UUG start	Env fusion inh
C[C@H](CO)N1C[C@H](C)[C@@H](CN(C)C(=O)NC2CCCC2)Oc2ncc(C3=CCCCC3)cc2C1=O	3	13[16.7 µM]
CCNC(=O)C[C@@H]1CC[C@H]2[C@H](COc3ccc(NC(=O)Nc4c(C)noc4C)cc3C(=O)N2C)O1	6	-14[16.7 µM]
Cc1noc(C)c1NC(=O)N(C)C[C@H]1OCCCC[C@H](C)Oc2ccc(NS(=O)(=O)c3cn(C)cn3)cc2C(=O)N([C@@H](C)CO)C[C@@H]1C	-14	-10[16.7 µM]
CC(C)NC(=O)N(C)C[C@@H]1Oc2ncc(-c3cccc(C#N)c3)cc2C(=O)N([C@H](C)CO)C[C@H]1C	-4	16[16.7 µM]
C[C@H](CO)N1C[C@H](C)[C@@H](CN(C)Cc2ccccc2)Oc2c(NS(=O)(=O)c3cccs3)cccc2C1=O	-6	-10[16.7 µM]
C[C@@H]1CN([C@@H](C)CO)C(=O)c2cc(-c3ccc(F)cc3)cnc2O[C@H]1CN(C)C(=O)NC1CCCC1	11	-5[16.7 µM]
C[C@@H]1CCCCO[C@H](CN(C)C(=O)Nc2ccccc2)[C@@H](C)CN([C@@H](C)CO)C(=O)c2cc(NS(=O)(=O)c3ccccc3)ccc2O1	-2	-82[16.7 µM]
C[C@H](CO)N1C[C@H](C)[C@H](CN(C)CC2CCCCC2)Oc2c(NC(=O)Nc3ccc4c(c3)OCO4)cccc2C1=O	-7	-105[16.7 µM]
CCC(=O)N[C@@H]1C=C[C@H](CC(=O)NCc2ccc(OC)cc2)O[C@@H]1CO	-6	1[16.7 µM]

The results go on.
SMILES	Yeast UUG start	Env fusion inh
CC(C)NC(=O)N[C@H]1CC[C@H](CCNC(=O)C2CC2)O[C@H]1CO	-9	-21[16.7 µM]
COCC#Cc1cnc2c(c1)C(=O)N([C@H](C)CO)C[C@@H](C)[C@H](CN(C)C)O2	12	-102[16.7 µM]
COc1ccc(C#Cc2ccc3c(c2)O[C@@H](CN(C)C(=O)Nc2cccc(OC)c2)[C@H](C)CN([C@H](C)CO)S3(=O)=O)cc1	0	8[16.7 µM]
C[C@@H]1CN([C@@H](C)CO)C(=O)c2cc(-c3cccc(F)c3)cnc2O[C@H]1CN(C)Cc1ccncc1	5	5[16.7 µM]
C[C@@H]1CN([C@@H](C)CO)C(=O)c2cc(NC(=O)NC3CCCCC3)ccc2O[C@@H](C)CCCCO[C@@H]1CN(C)Cc1ccncc1	-10	-22[16.7 µM]
Cc1noc(C)c1NC(=O)N(C)C[C@@H]1OCc2cn(nn2)CCCC(=O)N([C@@H](C)CO)C[C@H]1C	2	9
COc1ccccc1-c1ccc2c(c1)O[C@@H](CN(C)C(=O)Nc1ccccc1)[C@@H](C)CN([C@@H](C)CO)S2(=O)=O	-9	-27[16.7 µM]
C[C@H](O)C#Cc1cnc2c(c1)C(=O)N([C@H](C)CO)C[C@@H](C)[C@H](CN(C)C(=O)c1ccncc1)O2	-4	-12[16.7 µM]
Cc1ccc(S(=O)(=O)N(C)C[C@H]2Oc3ncc(-c4ccncc4)cc3C(=O)N([C@@H](C)CO)C[C@H]2C)cc1	9	-8[16.7 µM]
CC(C)NC(=O)N(C)C[C@H]1OCCCC[C@@H](C)Oc2ccc(NS(=O)(=O)c3ccccc3)cc2C(=O)N([C@@H](C)CO)C[C@H]1C	-7	-6[16.7 µM]
C[C@H](CO)N1C[C@H](C)[C@@H](CN(C)C(=O)Nc2ccc3c(c2)OCO3)OCCCC[C@H](C)Oc2ccc(NS(=O)(=O)c3cn(C)cn3)cc2C1=O	-13	-2[16.7 µM]
C[C@@H]1CCCCO[C@H](CN(C)Cc2ccncc2)[C@H](C)CN([C@H](C)CO)C(=O)c2cc(NS(=O)(=O)c3ccccc3)ccc2O1	-7	13[16.7 µM]
C[C@H]1CN([C@@H](C)CO)C(=O)c2cccc(NC(=O)c3nc4ccccc4s3)c2O[C@H]1CN(C)Cc1ccccc1	7	12[16.7 µM]
CCNC(=O)C[C@@H]1CC[C@@H]2[C@@H](COc3ccc(NC(=O)c4cccc(C(F)(F)F)c4)cc3C(=O)N2C)O1	11	5[16.7 µM]
C[C@H](CO)N1C[C@H](C)[C@H](CN(C)CC2CC2)Oc2c(NC(=O)c3nc4ccccc4s3)cccc2C1=O	7	-4[16.7 µM]
C[C@@H]1CN([C@@H](C)CO)C(=O)c2cc(-c3ccc(C#N)cc3)cnc2O[C@@H]1CN(C)C(=O)Nc1ccc(F)cc1	51	-1[16.7 µM]
C[C@H](O)C#Cc1cnc2c(c1)C(=O)N([C@@H](C)CO)C[C@@H](C)[C@@H](CN(C)C(=O)CN1CCOCC1)O2	9	-14[16.7 µM]
N#C[C@H]1N[C@H](CO)[C@H]1c1ccccc1	-16	-7[16.7 µM]
C[C@H]1CN([C@@H](C)CO)C(=O)Cc2cc(NC(=O)C3CC3)ccc2O[C@@H]1CN(C)S(=O)(=O)c1cccs1	-2	-4[16.7 µM]
C[C@@H]1CCCCO[C@@H](CN(C)Cc2ccc3c(c2)OCO3)[C@H](C)CN([C@H](C)CO)C(=O)c2cc(NS(=O)(=O)c3ccc(F)cc3)ccc2O1	31	-12[16.7 µM]
CC(C)C(=O)Nc1ccc2c(c1)C(=O)N(C)[C@@H]1CC[C@H](CC(=O)NCCCN(C)C)O[C@H]1CO2	-24	-10[16.7 µM]
C[C@@H]1CN([C@@H](C)CO)C(=O)c2cc(NC(=O)Nc3ccccc3)ccc2O[C@H]1CN(C)Cc1ccc(Cl)c(Cl)c1	1	-15[16.7 µM]
CC(C)C#Cc1cnc2c(c1)C(=O)N([C@H](C)CO)C[C@H](C)[C@H](CN(C)C(=O)C1CCC1)O2	11	4[16.7 µM]
C[C@@H]1CN([C@@H](C)CO)C(=O)c2cc(NC(=O)Nc3ccc4c(c3)OCO4)ccc2O[C@@H](C)CCCCO[C@@H]1CN(C)C(=O)C1CCCCC1	-12	8[16.7 µM]
COc1ccc(S(=O)(=O)N(C)C[C@H]2Oc3ccc(NC(=O)C4CCCCC4)cc3CC(=O)N([C@@H](C)CO)C[C@H]2C)cc1	8	1[16.7 µM]
The results go on:
SMILES	Yeast UUG start	Env fusion inh
O=C(C[C@H]1C[C@@H]2c3cc(NC(=O)C4CCC4)ccc3O[C@@H]2[C@@H](CO)O1)NCC1CC1	0	-1[16.7 µM]
C[C@H](CO)N1C[C@H](C)[C@H](CN(C)Cc2ccccc2)Oc2c(NC(=O)Nc3ccc(C(F)(F)F)cc3)cccc2C1=O	1	-15[16.7 µM]
COc1ccc(NC(=O)N(C)C[C@@H]2Oc3ccc(NC(=O)CCC(F)(F)F)cc3CC(=O)N([C@H](C)CO)C[C@@H]2C)cc1	5	28[16.7 µM]
C[C@H](CO)N1C[C@H](C)[C@@H](CN(C)S(=O)(=O)c2cccs2)Oc2ccc(NS(=O)(=O)c3ccc(F)cc3)cc2CC1=O	23	4[16.7 µM]
COc1ccc(-c2ccc([C@@H]3[C@@H](CO)N(C(=O)C4CCCCC4)[C@H]3C#N)cc2)cc1	-11	11[16.7 µM]
COCCNC(=O)C[C@@H]1C[C@H]2c3cc(NC(=O)Nc4ccc(F)cc4)ccc3O[C@H]2[C@@H](CO)O1	-14	-10[16.7 µM]
COCC(=O)Nc1ccc2c(c1)[C@H]1C[C@@H](CC(=O)NCCN3CCCCC3)O[C@H](CO)[C@H]1O2	34	21[16.7 µM]
C[C@H]1CCCCO[C@H](CN(C)C)[C@@H](C)CN([C@@H](C)CO)C(=O)c2cc(NS(C)(=O)=O)ccc2O1	-28	-5[16.7 µM]
Cc1noc(C)c1NC(=O)Nc1ccc2c(c1)C(=O)N([C@@H](C)CO)C[C@@H](C)[C@H](CN(C)Cc1ccccc1)OCCCC[C@H](C)O2	9	6[16.7 µM]
COc1ccccc1S(=O)(=O)N(C)C[C@@H]1Oc2cc(C#CCC(C)C)ccc2S(=O)(=O)N([C@@H](C)CO)C[C@@H]1C	38	38[16.7 µM]
C[C@@H]1CN([C@@H](C)CO)C(=O)c2cccc(NS(=O)(=O)c3ccc(F)cc3)c2O[C@H]1CN(C)S(=O)(=O)c1ccc(F)cc1	-3	10[16.7 µM]
COc1ccc(NC(=O)Nc2ccc3c(c2)[C@@H]2C[C@H](CC(=O)NCc4ccccc4F)O[C@@H](CO)[C@@H]2O3)cc1	-2	-2[16.7 µM]
C[C@H](CO)N1C[C@H](C)[C@@H](CN(C)Cc2ccncc2)Oc2ncc(-c3cccc(C#N)c3)cc2C1=O	0	5[16.7 µM]
C[C@@H]1CN([C@H](C)CO)C(=O)Cc2cc(NC(=O)Nc3ccc4c(c3)OCO4)ccc2O[C@@H]1CN(C)S(C)(=O)=O	0	-21[16.7 µM]
C[C@H](CO)N1C[C@H](C)[C@H](CN(C)Cc2cncnc2)Oc2cc(-c3ccncc3)ccc2S1(=O)=O	-15	12[16.7 µM]
O=C(N[C@H]1CC[C@H](CC(=O)N2CCCCC2)O[C@@H]1CO)c1ccccn1	-12	-3[16.7 µM]
COc1ccc(NC(=O)Nc2cccc3c2O[C@H](CN(C)Cc2ccc(Oc4ccccc4)cc2)[C@@H](C)CN([C@@H](C)CO)C3=O)cc1	2	5[16.7 µM]

This is a subset (hit frequency here may not be typical).
